Screening data deposited in PubChem by several laboratories.
Mtb bLac sens: beta-lactam sensitization of Mtb H37Rv; M. tuberculosis H37Rv growth with meropenem, percent inhibition; hits of this screen are not shown here; inhibition, % at 25 µM; 330,000 compounds, 0.27% hits; AID 434955;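 active = about 74% or more and at least 40 points above the plate without the antibiotic, then above 30% in a dose series; inconclusive = first-round hits that could not be retested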;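 also: growth measured after seven days incubation then overnight dye step; 0% = bacteria only wells and 100% = bacteria with antibiotic; twin plates without the antibiotic show which effects depend on it; some results filed as inactive read as strong as hits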
YopH PTP inh: inhibitors of Yersinia enterocolitica YopH tyrosine phosphatase. fluorescence Ex485/Em525. inhibition, %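 (about 10 µM by stock and volumes)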. 140,000 compounds, 0.16% hits. AID 898;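 active = inhibition of 50% or more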;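 also: controls were vehicle for no effect and minimum signal wells for full effect; inactives centre near -20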
Mtb H37Rv: M. tuberculosis H37Rv growth inhibitors, H37Rv strain (AID 1626); M. tuberculosis H37Rv growth inhibition; higher % means a stronger effect; one-dose inhibition, % at 10 µM; IC50 in µM for titrated hits; 220,000 compounds, 0.95% hits;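 active = confirmed in a dose series; inconclusive = inhibition above 80% but not taken into the dose series; inactive = below 80% or under 30% at every dose of the series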;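 also: bacteria incubated seven days before Alamar blue readout; 0% = bacteria only wells and 100% = bacteria with antibiotic wells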
Arbovirus inh: arbovirus infection inhibition; arbovirus infection cell-based antiviral screen; inhibition, % at 10 µM; 200,000 compounds, 0.37% hits; AID 1251;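 active = inhibition from about 30%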;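 also: bluetongue infection of BSR cells; cell survival read as ATP light after 72 h; 0% = infected wells without compound and 100% = uninfected wells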
RecA intein inh: inhibitors of M. tuberculosis RecA intein splicing; P9WHJ3; cell-free RecA intein splicing, fluorescence; inhibition, %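 (about 9 µM by stock and volumes)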; 290,000 compounds, 0.75% hits; AID 2221; in the data active = inhibition above about 30%; inconclusive = no clear call, values can overlap the other calls;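 also: 0% = vehicle wells and 100% = reference inhibitor control wells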
Target sequence (P9WHJ3 whole entry, looked up): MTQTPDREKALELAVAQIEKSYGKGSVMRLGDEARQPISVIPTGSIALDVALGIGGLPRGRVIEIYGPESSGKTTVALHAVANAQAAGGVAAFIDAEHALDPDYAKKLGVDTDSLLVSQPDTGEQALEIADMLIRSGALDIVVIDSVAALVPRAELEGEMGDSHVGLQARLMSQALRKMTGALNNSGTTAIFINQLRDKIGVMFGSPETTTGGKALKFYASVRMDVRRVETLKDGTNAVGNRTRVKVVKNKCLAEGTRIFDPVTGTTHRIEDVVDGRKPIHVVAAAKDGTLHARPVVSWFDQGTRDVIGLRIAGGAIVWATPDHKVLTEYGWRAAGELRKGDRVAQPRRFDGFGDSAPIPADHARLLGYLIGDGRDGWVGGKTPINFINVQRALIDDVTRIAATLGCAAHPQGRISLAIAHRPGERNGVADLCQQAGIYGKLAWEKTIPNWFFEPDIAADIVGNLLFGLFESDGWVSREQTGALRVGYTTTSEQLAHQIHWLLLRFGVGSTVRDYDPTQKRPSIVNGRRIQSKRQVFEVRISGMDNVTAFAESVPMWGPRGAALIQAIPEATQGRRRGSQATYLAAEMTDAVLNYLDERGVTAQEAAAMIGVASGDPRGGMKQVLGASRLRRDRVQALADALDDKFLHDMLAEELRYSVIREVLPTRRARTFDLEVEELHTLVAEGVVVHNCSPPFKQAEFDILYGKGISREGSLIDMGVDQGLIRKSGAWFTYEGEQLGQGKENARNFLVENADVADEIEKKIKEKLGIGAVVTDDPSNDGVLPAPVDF
Arbovirus inh repeat: also measured in Arbovirus inh; calls as there; inhibition, %; measured here: 10K subset replicate screen; many hits read low in the repeat;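 first of two repeat runs on a subset; 0% = infected and 100% = uninfected wells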
* hit, by the source's call. These rows are one share of the data; rates above refer to the full screens.

COc1cc2c(cc1NC(=S)Nc1cccc(C(F)(F)F)c1)oc1ccccc12 was read as Mtb bLac sens 90, YopH PTP inh -11, Mtb H37Rv inconclusive, Arbovirus inh -8 and RecA intein inh 1.0.
CCC1(C)Cc2ccccc2-c2nc3n(c(=O)c21)CCS3 (centres undefined) was read as Mtb bLac sens 4, YopH PTP inh -21, Mtb H37Rv 3%, Arbovirus inh 5 and RecA intein inh 2.7.
CC(C)Oc1cccc(C(=O)NC(=S)Nc2cccnc2)c1 was read as Mtb bLac sens 0, YopH PTP inh -13, Mtb H37Rv 13%, Arbovirus inh 0 and RecA intein inh -1.2.
For CCc1noc(C)c1C(=O)Nc1nc2ccc(F)cc2s1 the results were Mtb bLac sens 14 and RecA intein inh 1.0.
C[C@@H]1CC[C@H](O)/C=C/C(=O)O[C@H](C)CC[C@H](O)/C=C/C(=O)O1 was read as Mtb bLac sens -8, Mtb H37Rv -3% and RecA intein inh 0.5.
Screening COc1ccc(N2C(=O)[C@@H]3Cc4ccccc4CN3C2=O)cc1 returned Mtb bLac sens -19, YopH PTP inh -2, Mtb H37Rv -2%, Arbovirus inh 3 and RecA intein inh -1.0.
Screening CN(Cc1cnn(-c2ccc(F)cc2)c1)Cc1nc(Cc2ccccc2)no1 returned Mtb bLac sens -3, Mtb H37Rv 3%, Arbovirus inh 0 and RecA intein inh -1.3.
`Cn1c(=O)c2c(nc(N3CCOCC3)n2CCc2ccccc2)n(C)c1=O` gave Mtb bLac sens -1, Mtb H37Rv -4%, Arbovirus inh 1 and RecA intein inh -0.6.
CN1C(=O)C2(OCCCO2)c2ccccc21 was read as Mtb bLac sens 2 and RecA intein inh -0.1.
Screening CCOC(=O)c1cc(-c2ccccc2)nn1Cc1cc(C)no1 returned Mtb bLac sens 7 and RecA intein inh 0.3.
Screening CCOC(=O)c1ccc(NC(=S)NC(=O)COc2ccccc2)cc1 returned Mtb bLac sens 97, YopH PTP inh -26, Mtb H37Rv inconclusive, Arbovirus inh -4 and RecA intein inh -3.3.
Fc1c(F)c(F)c(N/N=C/c2c[nH]c3ccccc23)c(F)c1F was read as Mtb bLac sens 28, YopH PTP inh -9, Mtb H37Rv 16%, Arbovirus inh -31 and RecA intein inh 5.9.

The list goes on; the last four above are carried over.
CN1C(=O)C2(OCCCO2)c2ccccc21 was read as Mtb bLac sens 2 and RecA intein inh -0.1.
Screening CCOC(=O)c1cc(-c2ccccc2)nn1Cc1cc(C)no1 returned Mtb bLac sens 7 and RecA intein inh 0.3.
Screening CCOC(=O)c1ccc(NC(=S)NC(=O)COc2ccccc2)cc1 returned Mtb bLac sens 97, YopH PTP inh -26, Mtb H37Rv inconclusive, Arbovirus inh -4 and RecA intein inh -3.3.
Fc1c(F)c(F)c(N/N=C/c2c[nH]c3ccccc23)c(F)c1F was read as Mtb bLac sens 28, YopH PTP inh -9, Mtb H37Rv 16%, Arbovirus inh -31 and RecA intein inh 5.9.
`O=C(OCn1nnc2ccccc2c1=O)C1COc2ccccc2O1` (centres undefined) gave Mtb bLac sens 7, YopH PTP inh -43, Mtb H37Rv -2%, Arbovirus inh 1 and RecA intein inh 1.8.
`O=C(/C=C/c1ccc(Br)o1)OCc1ccccc1` gave Mtb bLac sens 80, YopH PTP inh -11, Mtb H37Rv -5%, Arbovirus inh -1 and RecA intein inh 5.3.
CCN1CCN(c2ccc(NC(=O)c3ccco3)cc2Cl)CC1 was read as Mtb bLac sens 1 and RecA intein inh -0.5.
`N#CC1=C(N)OC2=C(C(=O)CCC2)C1c1ccc(OC(=O)N2CCOCC2)cc1` (centres undefined) gave Mtb bLac sens -5, YopH PTP inh -33, Mtb H37Rv -7%, Arbovirus inh 17 and RecA intein inh 0.0.
O=C1c2ccccc2C(=O)N1CCCON1C(=O)c2ccccc2C1=O was read as Mtb bLac sens 3, YopH PTP inh -16, Mtb H37Rv -1%, Arbovirus inh 3 and RecA intein inh 4.2.
Screening COc1ccc(C2N=C(N)N=C(N)N2c2ccccc2)cc1OC (centres undefined) returned Mtb bLac sens 7, YopH PTP inh -38, Mtb H37Rv -1%, Arbovirus inh 0 and RecA intein inh 0.0.
Cc1ccc(NC(=O)Nn2cnnc2)cc1 was read as Mtb bLac sens -7 and RecA intein inh -0.8.
For Oc1ccc(-c2nccc(-c3ccc(Cl)cc3Cl)n2)cc1 the results were Mtb bLac sens 8, Mtb H37Rv 1%, Arbovirus inh 9 and RecA intein inh 4.1.
`Cc1cccc(C(=O)NNS(=O)(=O)c2ccc(F)cc2)c1O` gave Mtb bLac sens 10 and RecA intein inh -3.0.
For O=C(NC(N1CCCCCC1)C(Cl)(Cl)Cl)c1ccccc1Cl (centres undefined) the results were Mtb bLac sens -6, YopH PTP inh -31, Mtb H37Rv -4%, Arbovirus inh 2 and RecA intein inh 1.6.
Screening CC(C)(C)c1ccc(/C=N/Nc2nncn2N)cc1 returned Mtb bLac sens 90 and RecA intein inh -0.4.
Screening CCOc1ccc(C(=O)Nn2cnnc2)cc1 returned Mtb bLac sens 11, YopH PTP inh -45, Mtb H37Rv -13%, Arbovirus inh -1, RecA intein inh -1.2 and Arbovirus inh repeat 3.
CCc1ccc(OCC(=O)Nc2cc(S(=O)(=O)CC)ccc2O)cc1 was read as Mtb bLac sens -6, YopH PTP inh -44, Arbovirus inh 6 and RecA intein inh -0.4.
Screening CCn1c(CNC(=O)COc2ccc(C(C)C)cc2)nnc1SCC(=O)Nc1ccccc1 returned Mtb bLac sens 2, YopH PTP inh -5, Mtb H37Rv -1%, Arbovirus inh 0 and RecA intein inh 2.1.
`CC(C)(C)c1ccc(C(=O)c2cn[nH]c2-c2ccccc2O)cc1` gave Mtb bLac sens -2 and RecA intein inh 0.5.
For CCc1noc(C)c1C(=O)N(C)CC(=O)Nc1ccccc1C(F)(F)F the results were Mtb bLac sens -7 and RecA intein inh 2.5.
For CN(C(=O)COC(=O)CNC(=O)C12CC3CC(CC(C3)C1)C2)c1ccccc1 the results were Mtb bLac sens -1 and RecA intein inh -2.7.
For Cc1c(Cl)cccc1NC(=S)N1CCN(c2ccccn2)CC1 the results were Mtb bLac sens -2, Mtb H37Rv -9%, Arbovirus inh 0 and RecA intein inh -1.1.
`COc1cccc(/C(N)=N/OC(=O)Cc2ccccc2[N+](=O)[O-])c1` gave Mtb bLac sens 4, Mtb H37Rv 6%, Arbovirus inh -5 and RecA intein inh -1.8.
Screening Clc1cccc(NCc2cn3cccnc3n2)c1 returned Mtb bLac sens -5, Mtb H37Rv -4%, Arbovirus inh 0 and RecA intein inh -0.2.
`CC(C(=O)OCn1nnc2ccccc2c1=O)N1C(=O)c2ccccc2C1=O` (centres undefined) gave Mtb bLac sens -5, YopH PTP inh 1, Mtb H37Rv 0%, Arbovirus inh 2 and RecA intein inh -0.4.
Screening CCc1ccccc1NC(=O)Cn1ccn(-c2ccc(OC)cc2)c(=O)c1=O returned Mtb bLac sens 2 and RecA intein inh -1.8.
For Cc1cc(C)cc(NC(=S)NCCSc2ccc(Cl)cc2)c1 the results were Mtb bLac sens -2, YopH PTP inh -33, Mtb H37Rv 20%, Arbovirus inh -31 and RecA intein inh 8.1.
COc1ccc(OC)c(CN2CCC(N3CCC(C(=O)NC4CC4)CC3)CC2)c1 was read as Mtb bLac sens -5 and RecA intein inh -1.5.
For O=S(=O)(c1cccc(-c2csc(N/N=C/c3ccco3)n2)c1)N1CCOCC1 the results were Mtb bLac sens 54, Mtb H37Rv 7% and RecA intein inh 2.5.
For COCNc1nc(OCC#N)nc(N(C)C)n1 the results were Mtb bLac sens -18, YopH PTP inh -39, Mtb H37Rv -4%, Arbovirus inh 0 and RecA intein inh -1.3.
For COC(=O)C1=C(c2cc3ccccc3o2)C[C@@H]2CC[C@H]1N2C(=O)NCc1cccc2ccccc12 the results were Mtb bLac sens -6, Mtb H37Rv 7% and RecA intein inh 8.1.
For CCCCCCCC(=O)NNC(=O)c1c(O)c2ccccc2n(CCC)c1=O the results were Mtb bLac sens -1, Mtb H37Rv 2%, Arbovirus inh -11 and RecA intein inh 1.9.
Cc1cc(SCC(=O)NC(=O)NCc2ccco2)nc2c(C)cccc12 was read as Mtb bLac sens 4, YopH PTP inh -21, Mtb H37Rv 5%, Arbovirus inh 5 and RecA intein inh 0.0.
COc1cccc(N(CC(=O)NC(C)c2ccccc2)S(C)(=O)=O)c1 (centres undefined) was read as Mtb bLac sens -17, YopH PTP inh -21, Mtb H37Rv -11%, Arbovirus inh 6 and RecA intein inh 0.1.
Screening O=C(Nc1ccccc1)N1CCN(S(=O)(=O)c2ccccc2)CC1 returned Mtb bLac sens 7, Mtb H37Rv 1%, Arbovirus inh 2 and RecA intein inh -0.1.
N#Cc1nc(-c2ccco2)oc1N1CCC(C(N)=O)CC1 was read as Mtb bLac sens -17, YopH PTP inh -58, Mtb H37Rv -18%, Arbovirus inh 0 and RecA intein inh -0.5.
For Cn1ncc2c(Nc3cccc(C(=O)O)c3)ncnc21 the results were Mtb bLac sens 6, YopH PTP inh -6, Mtb H37Rv -6%, Arbovirus inh 2 and RecA intein inh -6.5.
For C=CC#CC[N+]1(CC#Cc2ccccc2)CCOCC1 the results were YopH PTP inh -68, Mtb H37Rv -7%, Arbovirus inh 11 and RecA intein inh 1.9.
O=S(=O)(c1ccc2ccccc2c1)N(CC(O)COCc1ccco1)c1ccccc1 (centres undefined) was read as Mtb bLac sens -7, YopH PTP inh 1, Mtb H37Rv 2%, Arbovirus inh -24 and RecA intein inh 1.3.
CCn1c(SCC(=O)N/N=C/C(C)=C\c2ccco2)nnc1-c1ccccc1 was read as Mtb bLac sens 2, YopH PTP inh -25, Mtb H37Rv 0%, Arbovirus inh -11 and RecA intein inh 3.4.
For Cc1cccc2cc(CN(Cc3ccco3)C(=O)Nc3cccc(C#N)c3)c(Cl)nc12 the results were Mtb bLac sens 12, YopH PTP inh -11, Mtb H37Rv 10%, Arbovirus inh 7 and RecA intein inh 2.2.
For COc1ccc(OC)c(NS(=O)(=O)Cc2ccccc2)c1 the results were Mtb bLac sens -8, YopH PTP inh -9, Arbovirus inh -3 and RecA intein inh 3.6.
For CCOc1ccc(NC(=O)CCCN2C(=S)NC(C)(C)CC2C)cc1 (centres undefined) the results were Mtb bLac sens -2, YopH PTP inh -26, Mtb H37Rv -1%, Arbovirus inh -2 and RecA intein inh 0.6.
Cc1cc(C)c2nc3c(c(C(=O)O)c2c1)CCC3 was read as Mtb bLac sens 6, YopH PTP inh -40, Mtb H37Rv -9%, Arbovirus inh 13 and RecA intein inh -0.3.
Screening CN(C)S(=O)(=O)c1ccc(N2CCCC2)c(C(=O)Nc2ccccc2OC(F)F)c1 returned Mtb bLac sens -4, Mtb H37Rv 7%, Arbovirus inh 5 and RecA intein inh -1.9.
O=C(Nc1nc(-c2ccccc2)cs1)C1CCCN(S(=O)(=O)c2cccc([N+](=O)[O-])c2)C1 (centres undefined) was read as Mtb bLac sens 1, YopH PTP inh -17, Mtb H37Rv 6%, Arbovirus inh -7 and RecA intein inh 1.4.
For CN(CC(=O)N1CC=C(c2ccccc2)CC1)S(=O)(=O)c1cnc[nH]1 the results were Mtb bLac sens -16, YopH PTP inh -38, Mtb H37Rv 4%, Arbovirus inh 14 and RecA intein inh -5.2.
COc1cccc(NC(=O)CCCOc2cc(=O)n(C)c3ccccc23)c1 was read as Mtb bLac sens 1, YopH PTP inh -11, Mtb H37Rv 13%, Arbovirus inh -2 and RecA intein inh 0.0.
Cc1ccc(-n2nnnc2SCC(=O)N(CC(C)C)c2c(N)n(CC(C)C)c(=O)[nH]c2=O)cc1 was read as Mtb bLac sens -3, Mtb H37Rv 5%, Arbovirus inh -1 and RecA intein inh 2.0.
CN(C)S(=O)(=O)c1cccc(NC(=S)NC23CC4CC(CC(C4)C2)C3)c1 was read as Mtb bLac sens -3 and RecA intein inh -1.9.
COc1ccc(NS(=O)(=O)c2ccc(N)c(C(=O)O)c2)cc1 was read as Mtb bLac sens -4, YopH PTP inh -31, Mtb H37Rv -15%, Arbovirus inh 12 and RecA intein inh -1.5.
`CCC(C)NCCCOc1ccc(Cl)cc1C(C)(C)C` (centres undefined) gave Mtb bLac sens -4, YopH PTP inh -11, Mtb H37Rv 8%, Arbovirus inh -17 and RecA intein inh -1.5.
For COc1cc(C(=O)NCC(=O)N2CCN(S(=O)(=O)c3cc(C)ccc3C)CC2)cc(OC)c1OC the results were Mtb bLac sens -19 and RecA intein inh -0.2.
For Cc1cc(=O)oc2cc(OCC(=O)OCC(=O)Nc3ccc(C(N)=O)cc3)ccc12 the results were Mtb bLac sens -5, Mtb H37Rv -3% and RecA intein inh -1.4.
Screening CCn1cc(CNCc2cn[nH]c2-c2cc3ccccc3o2)cn1 returned Mtb bLac sens -2, Mtb H37Rv 10%, Arbovirus inh 5 and RecA intein inh 0.6.
